Calb FLC: C. albicans growth inhibition with fluconazole, primary screen, CaCi-2 strain, Alamar Blue fluorescence; C. albicans CaCi-2 (fluconazole-resistant clinical isolate) + fluconazole, 48 h; growth inhibition, % (concentration not given with the values); 300,000 compounds, 0.57% hits;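 active = most replicates above 75%; inconclusive = exactly half above 75%; inactive = most below 75%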;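 also: all wells also contain fluconazole at 8 µg/ml as a sub-toxic cotreatment; 0% = median of DMSO wells and 100% = median of geldanamycin control wells; wells of about 8 µL received 7.5 nL stock; the first replicate is given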
A1 inh: caspase 3/7 activation in MEF A1-2A-BIM cells, primary screen, A1 inhibitor project, cell-based, luminescence, HTS; Caspase-Glo 3/7 luminescence, 3 h; percent of clofoctol response, vehicle zero; caspase activation, % (no concentration beside the values); 330,000 compounds, 0.066% hits; AID 2462, 2010;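 active = over half of replicate activation scores above 10%, or exactly half above 10 with the replicate mean above 10; inconclusive = replicate mean below 10 yet half the replicates above 10; inactive = over half of replicates below 10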;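 also: wells of about 30 µL received 50 nL stock; many hits fall short of the cut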
Beta cell apopt: inhibitors of cytokine-induced beta cell apoptosis, primary screen, luminescence. INS-1E cytokine-induced death, ATP luminescence, 48 h; percent of positive-control rescue, neutral wells zero. AID 435005, 2010. protection from apoptosis, % (no concentration beside the values). 300,000 compounds, 0.8% hits;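 active = all replicates at 75% or more, or half of them and the mean; inconclusive = half reach 75% but not the mean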;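 also: 0% = cytokine-treated negative control wells and 100% = positive control rescue; higher means more ATP so stronger rescue from cytokine killing; wells of about 40 µL received 100 nL stock; the first replicate is given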
UCH37 inh: inhibitors of human UCH37 deubiquitinase, primary screen, biochemical, Ub-AMC cleavage, fluorescence | Ubiquitin carboxyl-terminal hydrolase isozyme L5 (Homo sapiens), Q9Y5K5 | 330,000 compounds, 0.33% hits | inhibition, % (no concentration beside the values) | purified proteasome/UCH37 | AID 588478, 2011;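 active = mean of two replicates above 20%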;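 also: 0% = compound-free wells with enzyme and 100% = wells lacking proteasome; stock transfer was 100 nL into about 20 µL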
Target sequence (Q9Y5K5 whole entry, looked up): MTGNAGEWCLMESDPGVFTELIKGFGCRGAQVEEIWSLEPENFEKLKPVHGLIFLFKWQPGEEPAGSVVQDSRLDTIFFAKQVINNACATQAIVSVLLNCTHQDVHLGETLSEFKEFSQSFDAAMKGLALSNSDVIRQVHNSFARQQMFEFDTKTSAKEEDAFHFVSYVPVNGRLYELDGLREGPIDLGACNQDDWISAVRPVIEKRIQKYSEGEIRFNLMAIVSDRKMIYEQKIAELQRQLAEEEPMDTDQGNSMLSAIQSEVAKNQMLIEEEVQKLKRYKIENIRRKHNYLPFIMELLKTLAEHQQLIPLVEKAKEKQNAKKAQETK
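system = Proteasome-associated human UCH37 deubiquitinase | amount = 0.15 nM proteasome as dispensed | medium = pH 7.4 Tris-HCl (50 mM) with ovalbumin, ATP-MgCl2, DTT | incubation = 30 min preincubation with enzyme, 25 min cleavage at room temperature | detection = AMC fluorescence 355/460 nm | read-out basis = percent inhibition | controls = no-proteasome and no-compound wells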
RanGTP-Impb inh: inhibitors of RanGTP-importin-beta interaction, primary screen, biochemical, FRET, CFP-Ran, YFP-importin-beta, homogeneous | Ran GTPase (GTP-bound) - importin-beta complex | cell-free CFP-Ran/YFP-importin-beta FRET ratio | inhibition, % (no concentration beside the values) | 300,000 compounds, 1.1% hits;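 active = most replicates above 15%; inconclusive = exactly half above 15%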;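 also: 0% = DMSO wells and 100% = Ran loaded with GDP instead of GTP; wells of about 40 µL received 100 nL stock; the first replicate is given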
LANA-H2A inh: blockers of LANA interaction with H2A/H2B – biochemical, FP readout, HTS, primary screen. 320,000 compounds, 0.6% hits. inhibition, % (concentration not given with the values). Protein LANA1 (Human herpesvirus 8 type P (isolate GK18)), Q9QR71. cell-free LANA-H2A/H2B peptide, fluorescence polarization; in the data active = inhibition mostly above about 10%, no sharp cut-off; inactive = mostly below about 6.7%;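 also: stock transfer was 7.5 nL into about 10 µL; 0% = median of vehicle wells and 100% = median of positive control wells; one replicate is shown; the record names a cut of 25% in any replicate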
B2AR ag: beta2AR agonists driving receptor internalization, primary screen, cell-based, FAP fluorogen, flow cytometry. response, % (no concentration beside the values). Am2.2-beta2AR cells; reference of the scale not given here. Beta-2 adrenergic receptor (Homo sapiens), P07550. 340,000 compounds, 0.43% hits;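 active = response above a set limit, near 3 SD of response in nonfluorescent compounds, cut at about 42% in these data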;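 also: stock transfer was 100 nL into about 11 µL; a reference agonist was the positive control; negative values mostly stem from fluorescent compounds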
Target sequence (P07550 whole entry, looked up): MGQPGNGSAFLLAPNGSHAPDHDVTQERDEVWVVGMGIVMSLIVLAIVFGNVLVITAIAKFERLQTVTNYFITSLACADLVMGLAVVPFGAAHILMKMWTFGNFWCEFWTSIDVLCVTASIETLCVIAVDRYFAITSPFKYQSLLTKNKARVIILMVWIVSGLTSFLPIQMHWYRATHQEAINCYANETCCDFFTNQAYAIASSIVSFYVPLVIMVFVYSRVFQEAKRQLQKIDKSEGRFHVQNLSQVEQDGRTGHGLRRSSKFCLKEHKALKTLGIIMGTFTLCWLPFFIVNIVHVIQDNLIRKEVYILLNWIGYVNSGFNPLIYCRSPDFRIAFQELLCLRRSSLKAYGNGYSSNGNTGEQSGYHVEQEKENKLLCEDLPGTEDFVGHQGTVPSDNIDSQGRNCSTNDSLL
T cruzi inh: inhibitors of intracellular T. cruzi growth, primary screen, luminescence, NIH3T3 host cells; T. cruzi beta-gal in NIH3T3, 90 h; inhibition, % (no concentration beside the values); 300,000 compounds, 1.4% hits;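 active = mean inhibition across valid replicates above about 55%, limit read from the data; inconclusive = mean below that limit but half or more replicates reach it; inactive = mean below it, under half of replicates reach it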;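 also: signal also drops with host cell toxicity which is not excluded here; 0% = plate median of DMSO wells and 100% = zero luminescence signal; higher percent means less beta-gal luminescence so fewer parasites; stock transfer was 50 nL into about 50 µL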
Active calls of the source: *; i = inactive; ? = inconclusive; . = not tested or not shown.

mol	Beta cell apopt	Calb FLC	RanGTP-Impb inh	A1 inh	T cruzi inh	B2AR ag	UCH37 inh	LANA-H2A inh
COCCCN1CC(=O)N2Cc3[nH]c4ccccc4c3C[C@H]2C1=O	-4	0	0.2	0.5	-8	-6	1.1	-1.5
Cc1cc(C)cc(NC(=O)Cn2cnc3c(nnn3Cc3ccc(F)cc3)c2=O)c1	-5	18	1.8	0.7	4	-4	3.3	-0.9
CC(=O)c1c(Nc2cccc(F)c2)oc(C)cc1=O	-2	-5	-5.5	0.0	-7	0	6.1	-1.6
COc1ccc(CCC(C)N2CCOCC2)cc1 (configuration not stated)	1	-5	0.7	0.7	18	-7	3.2	-2.5
C=CCn1c(CNS(=O)(=O)c2ccc(F)cc2)n[nH]c1=S	-6	5	4.4	-1.1	-3	6	0.6	-5.4
CCOC(=O)C1=C(COC(=O)CCOc2cc(C)ccc2C)NC(=O)NC1C (configuration not stated)	-2	.	.	-0.8	.	-2	3.1	2.3
NC(=O)c1ccc(NC(=O)CCC(=O)c2cccs2)cc1	-9	12	-1.6	0.4	0	5	1.5	6.2
CC(=O)c1ccc(N2CCN(C(=O)Nc3ccc(F)cc3F)CC2)cc1	8	-31	0.0	0.5	-2	2	2.7	0.3

(list continues)
mol	Beta cell apopt	Calb FLC	RanGTP-Impb inh	A1 inh	T cruzi inh	B2AR ag	UCH37 inh	LANA-H2A inh
CC(CN1CCCCC1)OC(=O)C(C)(c1ccccc1)c1ccccc1 (configuration not stated)	-2	6	-2.3	0.2	3	4	3.8	1.3
COc1ccc(Br)cc1CN(C)CC(=O)NCCc1ccccc1	-5	-3	4.2	-0.6	23	-7	3.2	-0.1
O=C(O)CSc1nc2ccc(C(=O)c3ccccc3)cc2[nH]1	-4	39	4.8	-1.6	-9	-7	2.7	-5.9
COc1ccc(S(=O)(=O)N(C)CC(=O)NCc2ccco2)cc1Cl	-5	8	1.8	-0.4	-2	.	0.2	-4.9
Cc1cccc(C)c1OCC(=O)OCC(=O)c1ccc2c(c1)NC(=O)CO2	-4	4	-1.7	0.6	-14	7	0.2	3.9
CN(CC(=O)Nc1ccc(F)cc1)C(=O)Cn1cnc2ccc([N+](=O)[O-])cc2c1=O	-3	.	.	0.0	.	-1	1.7	-9.2
CCCSc1nc2c(c(=O)n1-c1ccc(OCC)cc1)SCC2	-3	-1	?	0.8	8	6	-1.6	1.5
O=C(CSc1ncn[nH]1)c1ccc2c(c1)OCO2	-6	-4	0.8	-0.9	-1	3	3.4	-6.8

Carrying on.
mol	Beta cell apopt	Calb FLC	RanGTP-Impb inh	A1 inh	T cruzi inh	B2AR ag	UCH37 inh	LANA-H2A inh
COc1ccc(CCNC(=O)CCCN2C(=O)c3ccccc3C2=O)cc1OC	-4	-4	-1.9	-0.7	-10	7	-0.4	-0.6
CC(=O)Nc1ccc(NC(=O)CSc2nnc(CNc3ccc(F)cc3)n2CC2CCCO2)cc1 (configuration not stated)	5	13	4.3	-0.5	-1	-10	5.7	2.3
O=C1C=C(N2CCCCC2)C2(CCCCC2)O1	1	?	-1.5	0.8	-12	-2	4.3	1.6
Cc1nc(SCC(=O)NC2CCCC2)[nH]c(=O)c1Cc1ccccc1	.	30	?	-0.1	-15	-8	-0.6	-1.3
COc1ccc(OC)c(NS(=O)(=O)c2ccc(N3CCCC3=O)cc2)c1	15	-12	-1.9	0.2	2	8	6.4	1.0
CC(CCc1ccccc1)NC(=O)COC(=O)C1CCC(C(C)(C)C)CC1 (configuration not stated)	3	10	-2.9	0.3	2	11	2.5	-4.2
Clc1ccccc1Nc1nc(-c2ccncc2)nc2ccccc12	1	-3	1.0	0.3	40	12	-19	-2.8
Cc1cc(N/N=C/c2ccc(F)cc2)nc(NCc2ccccc2)n1	.	21	-0.3	-4.1	32	1	.	4.0

Retrieved by structure from above (2):
mol	Beta cell apopt	Calb FLC	RanGTP-Impb inh	A1 inh	T cruzi inh	B2AR ag	UCH37 inh	LANA-H2A inh
Cc1nc(SCC(=O)NC2CCCC2)[nH]c(=O)c1Cc1ccccc1	.	30	?	-0.1	-15	-8	-0.6	-1.3
CC(=O)Nc1ccc(NC(=O)CSc2nnc(CNc3ccc(F)cc3)n2CC2CCCO2)cc1 (configuration not stated)	5	13	4.3	-0.5	-1	-10	5.7	2.3

Record cards, as listed above.
Cc1nc(SCC(=O)NC2CCCC2)[nH]c(=O)c1Cc1ccccc1 is entered as Beta cell apopt: .; Calb FLC: 30; RanGTP-Impb inh: ?; A1 inh: -0.1; T cruzi inh: -15; B2AR ag: -8; UCH37 inh: -0.6; LANA-H2A inh: -1.3
CC(=O)Nc1ccc(NC(=O)CSc2nnc(CNc3ccc(F)cc3)n2CC2CCCO2)cc1 (configuration not stated) is entered as Beta cell apopt: 5; Calb FLC: 13; RanGTP-Impb inh: 4.3; A1 inh: -0.5; T cruzi inh: -1; B2AR ag: -10; UCH37 inh: 5.7; LANA-H2A inh: 2.3
Clc1ccccc1Nc1nc(-c2ccncc2)nc2ccccc12 is entered as Beta cell apopt: 1; Calb FLC: -3; RanGTP-Impb inh: 1.0; A1 inh: 0.3; T cruzi inh: 40; B2AR ag: 12; UCH37 inh: -19; LANA-H2A inh: -2.8

Following part.
mol	Beta cell apopt	Calb FLC	RanGTP-Impb inh	A1 inh	T cruzi inh	B2AR ag	UCH37 inh	LANA-H2A inh
CCOC(=O)c1c(NC(=O)Cn2nc(C(F)(F)F)cc2C)sc2c1CCC2	0	-12	-2.6	0.8	15	3	0.9	0.8
CCn1nnnc1SCC(=O)N1CCN(Cc2ccc3c(c2)OCCO3)CC1	-2	.	.	-0.3	.	9	3.6	2.5
Nc1c(C(=O)N/N=C/c2ccccc2)cnn1-c1ccccc1	-4	3	2.0	-12	5	-3	.	1.9
COc1ccc2[nH]c(=O)c(CN(C(=O)C3CCCO3)c3ccc(C)c(C)c3)cc2c1 (configuration not stated)	-2	0	-0.7	-0.6	3	-4	-59	-2.9
CCCCn1c(CN2CCN(CCO)CC2)nc2ccccc21	-4	-21	-1.3	0.3	-2	-7	-0.3	-1.4
Cc1ccc(CN2CCN(c3ncccn3)CC2)o1	1	-10	2.2	-0.8	-12	5	1.7	1.5
Cc1nc(SCC(=O)NCc2ccc3c(c2)OCO3)nc(C)c1C	-5	.	.	-1.5	.	-2	0.7	-7.3
NS(=O)(=O)c1ccc(CCNC(=O)C2CCCN2S(=O)(=O)c2cccc3nsnc23)cc1 (configuration not stated)	0	2	-2.9	0.8	-6	4	2.5	-4.1

Next section:
mol	Beta cell apopt	Calb FLC	RanGTP-Impb inh	A1 inh	T cruzi inh	B2AR ag	UCH37 inh	LANA-H2A inh
COc1ccc([C@H]2CC(=O)C=C(/C=C/c3ccccc3)C2)cc1OC	0	.	.	-0.5	.	5	0.7	0.7
CCOC(=O)C(C(=O)OCC)c1cc(Br)c2noc3c2c1C(=O)c1ccccc1-3	33	16	-74	10*	65*	i	1.0	2.1
O=C1COc2ccc(C(=O)COC(=O)c3ccc(Cl)cc3[N+](=O)[O-])cc2N1	-7	-3	0.1	0.0	-13	4	0.3	.
CCOc1ccccc1CN1CCC(O)CC1	-4	13	3.0	-0.1	2	-4	-0.1	-1.7
O=C(CN1CCN(c2ccc(Cl)cc2)CC1)c1ccccc1	6	-42	4.7	0.3	6	2	1.6	1.6
COc1cccc(NC(=O)CN(C)C(=O)CCCNC(=O)c2ccc(Cl)cc2)c1	-2	.	.	0.4	.	2	2.7	3.7
O=C1NC2(CCCCCC2)C(=O)N1Cc1c(F)cccc1Cl	-2	-6	0.1	0.2	-1	0	1.8	0.9
CCc1ccc2[nH]c3nc(SCCN4CCOCC4)nnc3c2c1	4	1	2.3	-0.9	-6	13	1.7	-3.9

Going on with the list.
mol	Beta cell apopt	Calb FLC	RanGTP-Impb inh	A1 inh	T cruzi inh	B2AR ag	UCH37 inh	LANA-H2A inh
O=C1N=C(N2CCC(Cc3ccccc3)CC2)S/C1=C/c1cn[nH]c1-c1ccccc1	-2	-5	-0.7	0.0	30	11	-9.4	3.5
Cc1cccc(NC(=O)CCCSc2nc3ccccc3[nH]2)c1	-3	-2	-2.4	0.3	-5	-23	4.0	2.0
Nc1ccccc1N1CCN(C(=O)c2ccccc2)CC1	-1	0	-2.4	0.7	-7	-3	0.8	-6.6
CCN1C(=O)C(=O)N(CC(=O)N2CCN(c3ccccc3)CC2)C1=O	5	.	0.1	-0.4	-8	-4	3.5	-0.8
Cc1cc(C(=O)Cn2nc(C(=O)O)c3ccccc3c2=O)c(C)n1CCc1ccc(Cl)cc1	4	28	2.2	0.7	15	3	4.5	1.9
NS(=O)(=O)c1ccc(CCNC(=O)CN2CCN(Cc3cccc4ccccc34)CC2)cc1	-5	9	-2.5	0.9	4	-3	2.8	7.1
CN(C)c1ccc(C(=O)c2ccc(N(C)C)c(N)c2)cc1N	9	-57	1.5	-0.4	-9	4	8.1	-0.1
COCCCNC(=O)Cn1cc(/C=C(\C#N)C(=O)NC2CC2)c2ccccc21	-3	2	3.0	0.0	-8	-11	2.7	-2.7

Next section.
mol	Beta cell apopt	Calb FLC	RanGTP-Impb inh	A1 inh	T cruzi inh	B2AR ag	UCH37 inh	LANA-H2A inh
CC1CCCN(C(=O)CCS(=O)(=O)c2ccc3c(c2)NC(=O)C(C)S3)C1 (configuration not stated)	1	-7	-1.3	-0.1	10	3	-1.7	-3.0
CC1=NN(c2cccc(C(=O)O)c2)C(=O)/C1=C\C=C/c1ccccc1	.	?	-1.5	.	-29	.	6.8	.
COCCCN(Cc1cccs1)S(=O)(=O)c1c[nH]c(C(=O)OC)c1	-3	-2	-1.7	-0.7	4	-2	5.0	1.3
N/C(Cc1ccc(Cl)cc1)=N\OC(=O)c1cccc2ccccc12	20	?	1.9	-0.1	65*	7	-7.9	-8.8
C(=N\NC(=Nc1ccccc1)c1ccccn1)/c1ccccn1	-5	-16	2.2	0.4	9	-6	.	2.2
CCOC(=O)c1c(C)[nH]c(C(=O)OC(C)C(=O)NCc2ccccc2)c1C (configuration not stated)	.	-5	6.0	0.7	-3	-2	1.4	-6.4

High-throughput results as filed in PubChem.
